Source: PubChem BioAssay (several laboratories)
CSC inhib: blocks cancer stem cells | cancer stem cell-like cells viability, luminescence | inhibition, % at 7.5 µM | hit rate 1.1% among 300,000 | AID 2717;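 active = mean at 75% or more and at least half the replicates too; inconclusive = mean and replicates disagree; tested in HMLE shEcad cells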;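 also: 0% = median of negative and 100% = median of positive control wells; the first replicate is given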
Env fusion inh: inhibitors of HIV Env-mediated cell fusion; HeLa-JRFL Env/CEM21 cell fusion, luciferase; inhibition, % at 12.3 µM; hit rate 1.1% among 360,000; AID 651610;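 active = mean replicate inhibition score of at least 50 and every replicate individually at or above 50; inconclusive = only one of the two criteria met; inactive = mean below 50 and not all replicates reaching 50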;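 also: 0% = plate neutral controls and 100% = maraviroc near 300 nM; one replicate is shown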
PABP polyA inh: blocks human PABP binding to poly(A) RNA; P11940; AID 2014; inhibition, % at 35 µM; hit rate 1% among 290,000; fluorescence polarization;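 active = 50% or more with normal probe brightness, or confirmed in later tests; inconclusive = above 50% with abnormal brightness, or retests that disagree; inactive = below 50% or failed in later tests; about a fifth of its hits are not listed in these tables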;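 also: calls also rest on retests at 20 µM and on dose response follow-up; controls were probe without protein and protein plus probe with vehicle; some compounds called inactive have numbers as strong as hits; many hits fall short of the cut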
MT1-MMP act inh: MT1-MMP (human) activation inhibition; hit rate 0.061% among 360,000; GFP/RFP ratio change, % at 20 µM; HT1080 RFP-PRO-GFP cells, GFP/RFP ratio fluorescence, overnight; percent of plate control window, DMSO zero; AID 651647;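 active = GFP/RFP ratio change of at least 30% with cell ATP level not reduced by more than half and red fluorescence within 50% of control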; also: strong numbers were not always called active
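Test system: HT1080 RFP-PRO-GFP cells; Benchmarks: DMSO and RFP-L50D-GFP cell wells; Timing: cells overnight before dosing, compound overnight, 37 °C, 5% CO2; Compound: one 20 µM compound dose with 1% DMSO; Read-out: GFP/RFP fluorescence ratio.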
Rce1 inh: inhibitors of yeast Ras-converting enzyme; yeast membranes, quenched prenylated peptide cleavage fluorescence; AID 2563; calls only; Q03530; hit rate 0.27% among 290,000;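 active = fall in fluorescence gain of 50% or more versus controls, with final raw signal at or below 3038400; inconclusive = same 50% fall but final raw signal above 3038400; inactive = fall in fluorescence gain under 50%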;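 also: plate controls were neutral control wells for no effect and wells lacking membranes for full effect; tested at 10 µM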
Target sequence (Q03530 whole entry, looked up): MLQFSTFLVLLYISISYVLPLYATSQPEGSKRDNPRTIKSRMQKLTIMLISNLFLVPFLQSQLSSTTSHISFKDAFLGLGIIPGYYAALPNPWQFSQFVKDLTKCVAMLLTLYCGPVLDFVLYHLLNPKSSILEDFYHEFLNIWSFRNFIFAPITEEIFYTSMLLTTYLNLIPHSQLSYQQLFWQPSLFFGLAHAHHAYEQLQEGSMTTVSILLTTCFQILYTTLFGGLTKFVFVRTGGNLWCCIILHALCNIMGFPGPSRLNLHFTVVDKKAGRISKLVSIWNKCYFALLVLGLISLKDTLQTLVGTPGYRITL
UUG fidelity: modulators of start codon recognition fidelity in yeast. hit rate 0.13% among 350,000. S. cerevisiae UUG-firefly luciferase reporter, luminescence/redox ratio. AID 602363. activity score, % at 18.7 µM;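 active = replicate mean at a twofold rise or more, about +100% in these data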;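 also: firefly luciferase made from a UUG start codon reports start codon fidelity; reporter light over untreated wells divided by growth signal over untreated wells; some hits fall short of that in this replicate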
eIF4H inh: inhibitors of RNA binding by human eIF4H | Q15056 | eIF4H fluorescence polarization binding assay | inhibition, % at 35 µM | hit rate 0.94% among 290,000 | AID 2012;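 active = 50% or more with normal probe brightness, or confirmed in later tests; inconclusive = above 50% with abnormal brightness, or retests that disagree; inactive = below 50% or failed in later tests; about a fifth of its hits are not listed in these tables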;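 also: calls also rest on retests at 20 µM and on dose response follow-up; 0% = protein and probe with vehicle and 100% = probe without protein; strong numbers were not always called active; many hits fall short of the cut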
eIF4H inh retest: second read-out of eIF4H inh, no call of its own (marks repeat the call); inhibition, %; compound at 20 µM; confirmation average;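 mean of two retest wells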
PABP polyA inh retest: recorded beside PABP polyA inh, whose call it bears; inhibition, %; compound at 20 µM; confirmation repeats;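 mean of two retest wells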
MT1-MMP act inh RFP: further read-out of MT1-MMP act inh, marked with its call; RFP signal change, %; measured here: RFP expression control read;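 0 = vehicle wells; hits needed this value within 50% of zero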
* = called active by the depositor; i = inactive; ? = inconclusive; . = no result given. Only part of the results is shown; the hit share may differ from the screen's.

SMILES	CSC inhib	Env fusion inh	PABP polyA inh	MT1-MMP act inh	MT1-MMP act inh RFP	Rce1 inh	UUG fidelity	eIF4H inh	others
CCc1nc2c(OCc3ccc(OC(F)F)cc3)cccn2c1N(C)C(=O)c1ccc(OC)cc1	.	15	.	-1	-6	.	-21	.
COc1ccc(C)cc1Nc1nc(-c2c(C)[nH]c3ccccc23)cs1	-8	-13	-8	47*	48*	i	.	-1
Cc1cccc(-n2c(CCN3C(=O)c4ccccc4C3=O)nc3ccccc3c2=O)n1	.	-5	12	-1	-2	i	-15	-1
COc1ccc(CNC(=O)CSc2nc3ccc(C)cc3[nH]2)cc1	2	-3	7	1	2	i	-7	9
CC(C)(C)c1ccc(C(CC(=O)O)NS(=O)(=O)Cc2ccccc2)cc1 (centres undefined)	-2	9	7	1	-3	i	-13	10
CCC(=O)Nc1cccc(NC(=O)c2ccc3c(c2)OCO3)c1	-2	-57	-4	2	0	i	-3	-11
Nc1c(N2CCCCC2)c(=O)[nH]c(=O)n1-c1ccccc1	3	-29	5	2	5	i	-7	-6
CCN1CCN(C(=O)CN(C)S(=O)(=O)c2ccc(OC)cc2)CC1	-8	-4	8	4	16	i	.	14
CCc1ccc(NC(=O)Cn2nnc(-c3ccc(C)cc3-n3cnnn3)n2)cc1	20	-11	-6	5	0	i	-7	-10
CCn1nc(C(=O)NNS(=O)(=O)c2cc(/C=C/C(=O)O)cc(OC)c2OC)c2ccccc2c1=O	-14	-8	.	2	1	.	15	.
CCc1ccc(Oc2coc3cc(O)ccc3c2=O)cc1	-4	-11	0	0	0	i	-22	-11
CCOc1ccc(Cl)cc1CNc1nnnn1C	-10	-8	-1	1	-3	i	-7	-5
Cc1ccc(S(=O)(=O)N2CCOCC2)cc1C(=O)Nc1ccc(S(=O)(=O)Nc2nccs2)cc1	-13	7	-1	-7	2	i	.	13
Cc1ccc(C(=O)NCCN(C)C)cc1C	-3	2	-5	0	0	i	.	-14
CN1CCCc2cc(C=O)ccc21	13	-497	10	0	6	i	-9	-4
COc1cccc2c1OCC(CN1CCN(C3CCCCC3)C(CCO)C1)=C2 (centres undefined)	7	5	5	6	3	i	13	1
CCOC(=O)/C=c1\s/c(=C\c2ccccc2OC)c(=O)n1CC(=O)N1CCOCC1	-5	.	8	-4	-1	.	-6	6
CCCCCCCCC(c1nc2cc(C)c(C)cc2[nH]1)n1c(=O)c(-c2ccccc2Br)nc2ccccc21 (centres undefined)	.	-5	.	8	14	.	-12	.
Cn1cccc1C(=O)OCC(=O)c1c[nH]c2ccccc12	-14	-56	.	0	-1	.	.	.
O=C(NCCN=C1NS(=O)(=O)c2ccccc21)c1ccc(S(=O)(=O)N2CCOCC2)cc1	5	.	6	1	8	i	18	4
Cc1nn(Cc2ccccc2)c(Cl)c1C(=O)NC(C)(C)C	0	11	2	7	9	i	-19	1
CCN(CC)CCCNC(=O)c1cc2c(Cl)nc3ccccc3c2s1	77*	-26	4	.	.	i	.	2
CN(C)/C=N/c1nc2ncc(-c3ccc(Cl)cc3)c(/N=C/N(C)C)n2n1	-2	-8	-19	1	5	.	-15	-2
CC(=O)NCC(=O)OCC(=O)c1ccc(Cl)cc1	-1	14	15	2	9	i	-9	10
COc1ccc(CCC(=O)Nc2cccc(S(=O)(=O)N(C)C)c2)cc1OC	-15	13	-2	2	0	i	-15	10
O=C(CCCC(=O)OCC(Cl)=C(Cl)Cl)Nc1cccc2ccccc12	.	.	-4	-2	2	i	.	-15
Cc1nn(-c2ccccc2)c(N2CCCC2)c1/C=C1\N=C(c2ccccc2)OC1=O	5	-1	5	-1	-1	i	.	60	eIF4H inh retest=-14;PABP polyA inh retest=3
COc1ccc(NC(=O)Nc2nnc(Cc3ccc(OC)c(OC)c3)s2)cc1	-8	17	6	3	-4	i	-5	9
Cc1ccc2nc(-c3ccc(NC(=O)CN4CCN(c5ccccn5)CC4)cc3)sc2c1	4	-34	3	6	-7	i	-7	3
O=c1cc(C(F)(F)F)nc(SC/C=C/c2ccccc2)[nH]1	34	.	0	3	6	i	8	-3
CN(C)/C=C1\C(=O)N(C)N=C1C(F)(F)F	-5	2	30	5	5	i	.	-12
COc1cc(C2NC(=O)NC3=C2C(=O)OC3)cc(OC)c1OC (centres undefined)	20	6	-2	4	4	i	-20	4
COc1ccc2cc(S(=O)(=O)c3ccccc3)c(=O)oc2c1	-10	5	-1	-3	-2	i	4	-5
Oc1c(Br)cc(Br)c2cccnc12	.	42	.	9	-2	.	-64	.
Cc1ccccc1-n1c(SCC(=O)N/N=C/c2ccccc2OCC(=O)O)nc2ccccc2c1=O	1	8	4	0	1	i	4	10
O=Cc1sc(Nc2ccccc2)nc1Cl	7	-13	-1	-48	15	i	.	100	eIF4H inh retest=6;PABP polyA inh retest=22

4 entries drawn at random from those above:
SMILES	CSC inhib	Env fusion inh	PABP polyA inh	MT1-MMP act inh	MT1-MMP act inh RFP	Rce1 inh	UUG fidelity	eIF4H inh	others
Cc1ccccc1-n1c(SCC(=O)N/N=C/c2ccccc2OCC(=O)O)nc2ccccc2c1=O	1	8	4	0	1	i	4	10
COc1ccc2cc(S(=O)(=O)c3ccccc3)c(=O)oc2c1	-10	5	-1	-3	-2	i	4	-5
O=C(CCCC(=O)OCC(Cl)=C(Cl)Cl)Nc1cccc2ccccc12	.	.	-4	-2	2	i	.	-15
O=Cc1sc(Nc2ccccc2)nc1Cl	7	-13	-1	-48	15	i	.	100	eIF4H inh retest=6;PABP polyA inh retest=22

Back to the main list, repeating the 2 entries before the break.
SMILES	CSC inhib	Env fusion inh	PABP polyA inh	MT1-MMP act inh	MT1-MMP act inh RFP	Rce1 inh	UUG fidelity	eIF4H inh	others
Cc1ccccc1-n1c(SCC(=O)N/N=C/c2ccccc2OCC(=O)O)nc2ccccc2c1=O	1	8	4	0	1	i	4	10
O=Cc1sc(Nc2ccccc2)nc1Cl	7	-13	-1	-48	15	i	.	100	eIF4H inh retest=6;PABP polyA inh retest=22
COC(=O)CSc1[nH]c2cc(C)ccc2c1[N+](=O)[O-]	-5	23	1	6	8	i	-13	2
CSc1cccc(NC(=O)C2CCCN(S(=O)(=O)c3ccc(F)cc3)C2)c1 (centres undefined)	.	.	-17	-11	-18	i	5	5
COc1ccc(C(=O)COc2ccc(F)cc2)c(O)c1	3	-30	2	3	-4	i	-13	5
O=C1CC(NCCc2ccccc2)C(=O)N1CCc1ccccc1 (centres undefined)	5	9	0	-2	1	i	-5	-2
Oc1ccc(-c2cn3ccccc3n2)cc1O	4	-150	0	0	-4	i	-69	14
Cn1c(N)c(C(=O)COC(=O)/C=C/c2ccc(S(=O)(=O)N3CCOCC3)cc2)c(=O)n(C)c1=O	1	20	4	-4	-1	i	-5	-2
O=C(O)COc1ccc2c3c(c(=O)oc2c1)CCCC3	.	0	-1	-1	1	i	.	0
CCC1(c2ccccc2)NC(=O)N(CC(=O)Nc2ccc(S(=O)(=O)N3CC(C)CC(C)C3)cc2)C1=O (centres undefined)	23	15	.	1	-3	i	-23	.
Cc1cc(C)n2nc(Nc3ccccc3)cc2n1	0	.	-2	0	4	i	-15	-2
N#Cc1c(NC(=O)CSCC(=O)O)sc2c1CCCC2	8	.	13	2	5	i	8	-9
CCCc1cc(C(=O)Nc2ccc(C(=O)OC)cc2)cs1	-11	-30	12	2	-2	i	-13	2
CCOC(=O)CSc1nc(C)cc2c1C(=O)OC2	-9	6	11	0	4	i	1	-1
CCCCN(C)CCCNC(=O)CN1C(=O)COc2ccc(S(=O)(=O)N3CCOCC3)cc21	.	-3	14	0	5	i	-20	-14
O=C(CSc1nc(=O)n2ccccc2n1)NCc1ccc(F)cc1	-7	-2	.	-2	1	i	-11	.
CC1(C)C(=O)OC(c2cccc([N+](=O)[O-])c2)C2(CCCCC2)C1=O (centres undefined)	-14	6	-3	-1	3	i	-6	3
O=C(CSc1nnc(COc2ccccc2)o1)NCCc1ccccc1	-5	.	1	6	-1	i	-23	-6
C/C=C(/C)C(=O)OC1CC(C)(C)C[C@H]2C3=CC[C@@H]4[C@@]5(C)CCC(O[C@@H]6O[C@@H](C(=O)O)[C@@H](O)C(O[C@@H]7OC[C@H](O)[C@@H](O)[C@@H]7O[C@@H]7OC(CO)C(O)[C@@H](O)[C@@H]7O)C6O[C@@H]6OC(CO)C(O)C(O)C6O)[C@@](C)(CO)[C@@H]5CC[C@]4(C)[C@]3(C)CC(O)[C@@]12CO (some centres undefined)	33	.	.	-15	-5	.	22	.
Cc1ccccc1NCC(=O)N/N=C/c1ccc([N+](=O)[O-])cc1	-12	-13	9	-1	2	i	.	-7
Cc1ccc(S(=O)(=O)N2CCCC(c3nc4c(nnn4Cc4ccc5c(c4)OCCO5)c(=O)[nH]3)C2)cc1 (centres undefined)	4	8	.	-6	-2	i	3	.
Cc1ccc(N2NC(=O)/C(=C/c3ccc(-c4ccc(Cl)c(C(=O)O)c4)o3)C2=O)cc1C	0	21	13	1	7	i	-16	1
CCOC(=O)c1[nH]c(C)c(C(=O)OCc2ccccc2F)c1C	?	23	10	-20	-16	i	-12	-4
O=C(NCCCN1CCOCC1)c1sc2cc(Cl)ccc2c1Cl	8	4	-6	3	6	i	.	8
CCOC(=O)c1[nH]nc2c1C(=O)N(CC)C2=O	-3	.	-4	3	3	i	-20	-2
O=C(Nc1ccnc(-c2ccncc2)n1)c1cccs1	5	15	-4	1	3	i	.	-2
N#Cc1ccc(NC(=O)COC(=O)C2Cc3ccccc3CN2C(=O)c2ccccc2)cc1 (centres undefined)	11	?	17	-14	0	i	4	9
O=C(CN1CCC(n2nnc3cc(F)ccc32)CC1)Nc1ccc2c(c1)CCC2	0	-94	12	4	0	.	-9	2
Cc1ccc(S(=O)(=O)N2CCN(C(=O)C(C)Cn3nc(C)c(C)c3C)CC2)cc1 (centres undefined)	-4	-11	2	-3	-3	.	-2	-5
O=C(NCCN1C(=O)C2C3C=CC(C3)C2C1=O)Nc1ccccn1 (centres undefined)	4	-26	5	-1	3	i	-22	0
COc1ccc(CCNC(=O)C(C)Sc2ccc(C)cc2)cc1OC (centres undefined)	-11	-40	-3	6	-2	i	.	-1
CC(C)(C)NCCOc1ccc(Br)cc1	14	.	9	8	10	i	-13	-3
O=C1CN(C(=O)COC(=O)c2ccc(Cl)c(S(=O)(=O)N3CCCCC3)c2)c2ccccc2N1	-1	.	.	3	0	.	14	.
COC(=O)c1cc2cc(NS(=O)(=O)c3ccc(C)cc3)ccc2s1	-4	-51	5	-4	-5	i	-17	1
